Screening data from PubChem.
HNF4A DNA FP: change in binding of human HNF4 alpha to DNA | hit rate 0.3% among 360,000 | HNF4a-FITC DNA binding, fluorescence polarization, 1 h | AID 1224865 | activity change, % at 10 µM | P41235; in the data active means activity change above about 30%, passing the limit was not always enough;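 further: controls were the assay level and a saturating level of protein; the project sought stronger binding though the title names inhibitors; some compounds called inactive have numbers as strong as hits; positive values seem to mean higher polarization but the record does not say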
A1 inh: inhibitors of the anti-apoptotic protein A1, read as caspase activation; MEF A1-2A-BIM cells, Caspase-Glo 3/7 luminescence, 3 h; percent of clofoctol response, vehicle zero; caspase activation, % (concentration not given with the values); hit rate 0.066% among 330,000;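 active means over half of replicate activation scores above 10%, or exactly half above 10 with the replicate mean above 10; inconclusive means replicate mean below 10 yet half the replicates above 10; inactive means over half of replicates below 10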;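 further: wells of about 30 µL received 50 nL stock; many hits fall short of the cut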
Vif A3G: HIV-1 Vif–A3G interaction blockers – biochemical, TR-FRET, GST-Vif 1-94, biotin-A3G peptide, dose response retest, primary screen (AID 1117319) | TR-FRET GST-Vif / biotin-A3G peptide binding; higher % means a stronger effect; test concentration not given here; strong numbers were not always called active | one-dose inhibition, %; IC50 in µM for titrated hits | hit rate 0.57% among 260,000;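 active means above the screen mean plus three standard deviations and confirmed in dose response; inconclusive means results disagree or hit not tested in dose response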;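 further: Vif residues 1-94 fused to GST binding biotinylated APOBEC3G peptide 110-148; 0% = full assay without inhibitor and 100% = GST in place of GST-Vif; retest series ran down from 100 µM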
LANA-H2B inh: blocks KSHV LANA binding to histone H2A/H2B; hit rate 0.6% among 320,000; AID 2629; inhibition, % (no concentration beside the values); cell-free LANA-H2A/H2B peptide, fluorescence polarization; in the data active means inhibition mostly above about 10%, no sharp cut-off; inactive means mostly below about 6.7%;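 further: stock transfer was 7.5 nL into about 10 µL; 0% = median of vehicle wells and 100% = median of positive control wells; one replicate is shown; the record names a cut of 25% in any replicate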
Target sequence (Q9QR71 whole entry, looked up): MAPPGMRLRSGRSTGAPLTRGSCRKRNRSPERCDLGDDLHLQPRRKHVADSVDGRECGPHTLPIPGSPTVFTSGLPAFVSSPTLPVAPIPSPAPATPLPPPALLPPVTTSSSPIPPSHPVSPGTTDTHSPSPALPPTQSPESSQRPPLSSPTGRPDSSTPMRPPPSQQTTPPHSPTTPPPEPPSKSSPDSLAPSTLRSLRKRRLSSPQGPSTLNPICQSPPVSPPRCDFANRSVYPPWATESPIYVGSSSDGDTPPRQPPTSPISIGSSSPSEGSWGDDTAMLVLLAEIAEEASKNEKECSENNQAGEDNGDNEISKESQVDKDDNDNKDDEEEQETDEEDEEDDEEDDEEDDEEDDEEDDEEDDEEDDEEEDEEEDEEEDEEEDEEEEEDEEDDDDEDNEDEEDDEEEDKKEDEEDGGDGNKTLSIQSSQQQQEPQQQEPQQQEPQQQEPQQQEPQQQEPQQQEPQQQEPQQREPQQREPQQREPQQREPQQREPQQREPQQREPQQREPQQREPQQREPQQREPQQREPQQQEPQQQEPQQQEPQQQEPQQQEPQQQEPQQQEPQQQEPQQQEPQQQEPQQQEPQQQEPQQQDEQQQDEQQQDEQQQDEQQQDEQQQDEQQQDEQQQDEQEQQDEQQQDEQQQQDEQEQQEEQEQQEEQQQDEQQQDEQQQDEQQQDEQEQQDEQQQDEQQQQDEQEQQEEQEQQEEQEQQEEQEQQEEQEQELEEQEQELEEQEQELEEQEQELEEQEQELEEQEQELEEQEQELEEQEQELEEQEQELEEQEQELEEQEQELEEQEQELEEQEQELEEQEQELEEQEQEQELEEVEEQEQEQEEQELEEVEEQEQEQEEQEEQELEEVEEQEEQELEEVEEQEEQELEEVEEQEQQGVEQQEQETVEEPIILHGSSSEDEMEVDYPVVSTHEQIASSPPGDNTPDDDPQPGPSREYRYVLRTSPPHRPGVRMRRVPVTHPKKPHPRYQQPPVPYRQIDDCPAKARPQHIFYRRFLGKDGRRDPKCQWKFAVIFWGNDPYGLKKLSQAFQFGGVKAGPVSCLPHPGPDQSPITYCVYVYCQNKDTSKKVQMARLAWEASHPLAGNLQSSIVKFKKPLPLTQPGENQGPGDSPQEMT
E coli growth: E. coli growth inhibition; Escherichia coli growth, OD600, 23 h; hits give low values; OD600 absorbance (concentration not given with the values); hit rate 0.21% among 330,000;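 active means OD600 absorbance below the run mean of sample wells minus 3.6 SD, in any replicate, cut at about 0.56 in these data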;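 further: stock transfer was 300 nL into about 60 µL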
Beta2AR agonist: agonists of human beta-2 adrenergic receptor inducing internalization; P07550; Am2.2-beta2AR cells, FAP receptor internalization, flow cytometry; reference of the scale not given here; response, % (concentration not given with the values); hit rate 0.43% among 340,000; AID 504454;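 active means response above a set limit, near 3 SD of response in nonfluorescent compounds, cut at about 42% in these data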;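 further: stock transfer was 100 nL into about 11 µL; a reference agonist was the positive control; negative values mostly stem from fluorescent compounds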
UCH37 DUB inh: inhibitors of human deubiquitinating enzyme UCH37. purified proteasome/UCH37, Ub-AMC cleavage fluorescence. inhibition, % (no concentration beside the values). hit rate 0.33% among 330,000. AID 588478;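 active means mean of two replicates above 20%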;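 further: 0% = compound-free wells with enzyme and 100% = wells lacking proteasome; stock transfer was 100 nL into about 20 µL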
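Material: Human UCH37 enzyme supplied as purified proteasome complex | Schedule: 30 min preincubation with enzyme, 25 min cleavage at room temperature | Detection: AMC fluorescence 355/460 nm | Measure: % inhibition of Ub-AMC cleavage fluorescence | Controls: Wells without proteasome as full block, compound-free enzyme plus substrate as uninhibited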
* hit, by the source's call; ? = inconclusive; / = no result given; & = joins results of further samples.

smiles	A1 inh	E coli growth	UCH37 DUB inh	Vif A3G	HNF4A DNA FP	Beta2AR agonist	LANA-H2B inh
Cc1ccc(C(CC(=O)O)NC(=O)CN2C(=O)c3ccccc3C2=O)cc1 (stereo not drawn)	0.3	0.66	5.4	/	0.2	4	-0.3
Cc1noc(C)c1CSc1ccccc1C(=O)OC(C)C(N)=O (stereo not drawn)	0.1	0.65	4.4	-4%	-1.5	7	-4.3
COc1ccccc1Nc1c([N+](=O)[O-])cc(C)cc1[N+](=O)[O-]	-0.4	0.67	3.3	18%	3.0	1	0.1
CC(=O)N1CCC2(CC1)C/C(=N\NC(=S)Nc1ccc(C)cc1)c1cc(O)ccc1O2	0.4	/	/	23%	4.5	-6	-12
COc1ccc(-c2cn(-c3ccc(C)cc3C)c(=S)[nH]2)cc1OC	0.1	0.62	0.4	/	3.4	-4	3.0
COc1ccc(CCNC(=O)/C(C#N)=C2\N=C(NC(=O)c3cccs3)c3ccccc32)cc1	0.2	0.75	4.5	/	1.4	9	-4.2
C/C(CC(=O)Nc1cccc(Cl)c1C)=N\NC(=O)Cc1csc(N)n1	0.3	/	/	?	2.1	-1	7.6
Cc1cccc(C)c1OCCOC(=O)c1cccc(S(=O)(=O)N2CCOCC2)c1	-0.9	0.71	1.6	4%	-1.9	-2	2.2
O=C(O)CC(C(=O)OC1CCCCC1)N1CCOCC1 (stereo not drawn)	1.2	0.65	1.8	-4%	0.4	-4	-2.1
O=c1c2ccccc2nc2n1C(CSCc1cccc(C(F)(F)F)c1)CS2 (stereo not drawn)	-0.9	0.7	2.1	-3%	0.9	9	5.2
O=c1oc2ccccc2n1Cc1cccc(Cl)c1	1.4	0.68	4.1	-7%	-4.9	2	0.4
CCc1ccc(C(=O)COC(=O)c2cccnc2Cl)cc1	-0.8	0.68	1.4	-11%	1.2	2	-0.8
COc1cc(C(=S)N2CCOCC2)ccc1OC(=O)c1ccccc1[N+](=O)[O-]	-0.5	0.66	3.8	/	3.2	2	-2.8
Cc1cc(C(=O)CSc2n[nH]c(N)n2)c(C)n1-c1ccccc1	0.1	0.69	3.9	4%	2.9	-6	-2.7
Cc1c2ccncc2cc2c1[nH]c1ccccc12	/	0.41*	-37	15%	8.7	-21	/
CCC(C)[C@H](NC(=O)Nc1cccc(Br)c1)C(=O)OC (stereo partly drawn)	0.5	0.71	-1.0	18%	-1.7	9	1.5
Cc1cccc(NC(=O)CCN2CCC(C)CC2)c1	-0.5	0.68	1.8	/	-2.8	-6	1.4
CCOCCCNC(=O)C1CCN(c2cc(C)nc3c(-c4ccc(OC)c(OC)c4)c(C)nn23)CC1	-5.8	0.63	5.5	-10%&6%	2.8	-3	1.6
O=C(CCNc1n[nH]c(=O)[nH]c1=O)N/N=C/c1ccc(C(F)(F)F)cc1	3.7	/	/	20%	5.1	-9	-7.3
COC1CCCN(C(=O)c2cccc(OC3CCN(S(C)(=O)=O)CC3)c2)C1 (stereo not drawn)	-0.3	0.67	3.3	-1%	-0.7	0	-1.4
Cc1nnsc1C(=O)NNc1ccc(C(C)(C)C)cc1	-0.7	0.68	-1.6	-4%	7.2	-1	6.6
Cc1cc(C)c(C(=O)N2CCCC(CNS(=O)(=O)N(C)C)C2)o1 (stereo not drawn)	-0.5	0.71	3.4	/	1.0	-2	0.4
Cc1cccc(NC(=O)CNC(=O)CSc2nnc(C(F)(F)F)n2C)c1C	0.3	0.7	-0.9	10%	-1.4	1	3.6
COc1cccc(OC)c1C(=O)NNS(=O)(=O)c1ccc2ccccc2c1	-0.6	0.7	3.0	-7%	4.3	-1	0.7
COCc1cc(=O)[nH]c(-c2csc(C)n2)n1	-0.1	0.69	0.8	-6%	1.8	-2	1.7
COc1cc(C2C(C(=O)c3ccc(C)o3)=C(O)C(=O)N2CCCn2ccnc2)cc(OC)c1OC (stereo not drawn)	0.2	0.68	4.4	-4%	0.8	4	3.3
Cc1ccc(NC(=O)c2cc3ccccc3oc2=N)cc1	-7.0	0.69	7.1	/	0.5	4	-2.7
O=C(Nc1cc(S(=O)(=O)N2CCOCC2)ccc1N1CCCCC1)c1ccccc1Br	-0.1	0.7	0.1	-9%	9.2	-4	-3.9
Cc1ccc(C(=O)Nc2ccccc2C(=O)Nc2ccccn2)cc1Cl	-6.7	0.63	-11	2%	1.5	-2	0.6
CN(C)CCCN(C(=O)c1ccc(S(=O)(=O)N2CCOCC2)cc1)c1nc2ccc(F)cc2s1	0.2	/	/	/	0.1	9	-3.3

Exported as labelled records: 2 of the compounds above
canonical_smiles: COc1cccc(OC)c1C(=O)NNS(=O)(=O)c1ccc2ccccc2c1
  A1 inh: -0.6 | E coli growth: 0.7 | UCH37 DUB inh: 3.0 | Vif A3G: -7% | HNF4A DNA FP: 4.3 | Beta2AR agonist: -1 | LANA-H2B inh: 0.7
canonical_smiles: O=C(CCNc1n[nH]c(=O)[nH]c1=O)N/N=C/c1ccc(C(F)(F)F)cc1
  A1 inh: 3.7 | E coli growth: / | UCH37 DUB inh: / | Vif A3G: 20% | HNF4A DNA FP: 5.1 | Beta2AR agonist: -9 | LANA-H2B inh: -7.3

Some entries already given with just A1 inh, HNF4A DNA FP and LANA-H2B inh.
molecule | A1 inh | HNF4A DNA FP | LANA-H2B inh
CC(=O)N1CCC2(CC1)C/C(=N\NC(=S)Nc1ccc(C)cc1)c1cc(O)ccc1O2 | 0.4 | 4.5 | -12
COc1ccc(-c2cn(-c3ccc(C)cc3C)c(=S)[nH]2)cc1OC | 0.1 | 3.4 | 3.0

Further compounds:
smiles	A1 inh	E coli growth	UCH37 DUB inh	Vif A3G	HNF4A DNA FP	Beta2AR agonist	LANA-H2B inh
CCCCNC(=O)Cn1cnc2ccc(S(=O)(=O)N3CCC(C)CC3)cc2c1=O	-1.0	0.68	3.2	-17%	-1.4	-4	1.4
Cc1c(S(=O)(=O)N2CCOCC2)c(=O)n(C)c(=O)n1C	0.8	0.79	3.6	0%	-0.9	6	-4.2
CCN(CC)CCNC(=O)c1ccc(NC(=O)C2CCN(c3ncnc4sc(C)c(C)c34)CC2)cc1	1.3	0.67	2.8	/	1.0	22	0.1
O=C(Nc1ccc(Cl)cc1)c1ccc2nsnc2c1	-1.6	0.64	-8.2	-3%	0.3	4	3.8
COc1ccccc1N1CCN(C(=O)c2coc(=O)c(Br)c2)CC1	0.7	0.7	-118	28%	-1.6	14	4.6
CC(=O)Nc1cccc(-n2nnc(SCC(=O)c3ccccc3)n2)c1	-1.1	0.64	2.0	-9%	-2.3	-5	-0.1
Cc1nn(C)cc1CNC(=O)Nc1cccc(Cl)c1	-3.8	0.69	-1.0	3%	0.6	-9	0.9
Cc1nn(C)cc1NC(=O)CC12CC3CC(CC(C3)C1)C2	0.4	0.73	6.0	/	1.2	-4	-2.0
CCOc1ccccc1Nc1ccc(C(=O)O)cc1N	0.7	0.68	2.7	12%	2.6	9	-1.1
CSCCC(NC(=O)c1ccccc1)C(=O)NCc1ccc(S(N)(=O)=O)cc1 (stereo not drawn)	0.1	0.67	-0.3	0%	-2.1	10	-3.9
Cc1cc(C)n(-c2ccc(C(=O)OCC(=O)Nc3ccc(S(=O)(=O)N4CCOCC4)cc3)cc2)n1	-0.9	0.7	1.2	-3%	2.0	-2	6.6
O=C1C(Nc2ccccc2)=C(NS(=O)(=O)c2ccccc2)C(=O)c2ccccc21	-0.3	0.74	-0.8	15%	-0.3	-8	-6.3
O=C(c1ccccc1Br)N1CCc2c([nH]c3ccccc23)C1	0.9	0.63	4.7	3%	2.2	-1	4.4
O=C(O)c1cc(=O)[nH]c2ccc(S(=O)(=O)Nc3ccc(F)cc3)cc12	0.7	0.66	4.7	10%	0.8	-4	2.6
COc1cccc2sc(N(CCCN(C)C)C(=O)CCS(=O)(=O)c3ccccc3)nc12	0.3	0.68	5.2	/	3.9	24	1.7
CN(C)CCN=Cc1c(O)n(-c2ccc(S(=O)(=O)N3CCOCC3)cc2)c(=O)c2ccccc12	/	0.66	5.8	8%	-1.3	2	/
NC(=O)c1ccc(-n2nnnc2SCC(=O)Nc2ccccc2)cc1	1.0	0.69	2.3	1%	-0.5	2	2.6
CC1CCCC(NC(=O)CSc2nnc(C(F)(F)F)n2C)C1C (stereo not drawn)	0.6	0.73	-0.4	/	2.6	-6	-1.0
CC(=O)NC(Cc1ccccc1)C(=O)OCC(=O)c1ccc(F)cc1 (stereo not drawn)	1.0	0.7	-1.8	-1%	1.4	6	2.3
Cc1cc(C)cc(NC(=O)c2cccnc2)c1	-1.5	0.59	2.8	/	1.7	-4	-4.1
CCc1cccc(OCC2Cn3c(nc4c3c(=O)n(C)c(=O)n4C)O2)c1 (stereo not drawn)	-0.3	0.71	1.8	4%	5.1	0	-5.1
O=C(O)C[C@H]1c2cc(F)ccc2S(=O)(=O)N1C1CCN(Cc2ccccc2)CC1	0.8	/	-0.8	/	-6.8	1	0.1
CC(C)CCn1c(Sc2nc3ccccc3s2)nc2c1c(=O)[nH]c(=O)n2C	-0.6	0.73	6.9	?	5.4	-15	2.2
O=C(OCCC1Oc2cccnc2NC1=O)c1ccc([N+](=O)[O-])cc1 (stereo not drawn)	0.5	0.72	0.8	1%	/	/	1.3
Cc1cccc(NC(=O)C(c2cccc([N+](=O)[O-])c2)N2CCCCC2)c1 (stereo not drawn)	-0.6	0.68	4.4	6%	-5.5	13	-2.7
CC1CCN(S(=O)(=O)c2cccc(C(=O)N(Cc3ccccc3)c3ccccn3)c2)CC1	1.0	0.67	3.5	-4%	4.1	1	-1.0
CCN(C(=O)COC(=O)c1ccccc1Cc1ccccc1)c1c(N)n(Cc2ccccc2)c(=O)[nH]c1=O	/	0.67	1.5	/	-4.0	-8	/
Cc1cc(C)c2cc(C#N)c(N3CCCN(S(=O)(=O)c4ccccc4)CC3)nc2c1	-0.2	0.71	-7.7	/	/	/	-2.6
Cc1ccc2[nH]c3c(c2c1)CN(C(=O)CN1CCN(Cc2ccc4c(c2)OCO4)CC1)CC3	1.3	0.69	-0.9	24%	-2.9	13	-0.4
COc1ccc(N2CC(C(=O)OCC(=O)Nc3cccc(C)c3)CC2=O)cc1 (stereo not drawn)	0.5	0.68	1.7	/	1.6	10	7.2
CN(CCC(=O)Nc1ccc(Br)cc1)Cc1ccccc1	-0.8	0.7	5.0	0%	-1.7	17	5.8
CC(C)CCc1noc(CN2CCN(CC(=O)NC(C)C)CC2)n1	0.7	0.65	2.7	?	-0.3	-1	-2.2
Cc1cccc(C)c1OCC(=O)Nc1ccc(NC(=O)c2ccco2)cc1	-0.4	0.71	-13	5%	-1.2	1	-0.8
COc1ccccc1N=Cc1c(O)c2ccccc2oc1=O	0.5	0.69	-48	/	0.1	-9	3.4
COc1ccc(C(=O)N2CCc3cc(OC)c(OC)cc3C2c2ccc(OC)c(OC)c2)cc1OC (stereo not drawn)	-0.3	0.67	0.6	-5%	4.7	1	-1.9
O=C(OCc1nnc(-c2cccs2)o1)C1=NN(c2ccccc2)C(=O)CC1	0.3	0.7	3.2	5%	6.0	-7	-4.5
CCC(=O)Nc1nnc(-c2ccc(Cl)s2)o1	-1.0	0.68	-2.4	1%	-0.4	-7	-0.5
COC(=O)c1c(NC(=O)c2cccnc2Cl)sc(C(=O)N(C)C)c1C	-0.3	0.68	6.5	12%	-2.2	-1	2.1
C[C@@H]1C(=O)O[C@@H]2CC34[C@H]5C[C@@H](C(C)(C)C)C36[C@H](OC(=O)[C@@H]6O)OC4(C(=O)O5)[C@@]12O (stereo partly drawn)	1.7	/	-0.7	-12%	1.2	-3	-2.4
